# Source: PubChem
# TAR Tat displ: HIV-1 TAR-Tat binding disruption | z-score (no concentration beside the values) | 0.6% of 100,000 active | HIV-1 TAR RNA, Tat peptide displacement FRET; active compounds read high;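 note: score is relative to mean and SD of negative controls; some compounds called inactive have numbers as strong as hits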
# CDC25B-CDK2 inh: human CDC25B-CDK2/CyclinA binding inhibition; P30305+P24941; HTRF CDC25B-CDK2/CyclinA binding, anti-His/anti-Flag; active compounds read high; z-score (concentration not given with the values); 0.72% of 94,000 active; AID 1259370;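 note: score is relative to mean and SD of negative controls; strong numbers were not always called active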
# Active calls of the source: *; . = not tested or not shown; & = joins results of further samples.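 Rule for the calls: active = z-score from 3 up in half or more of its runs; inactive = the rest.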
SMILES,TAR Tat displ,CDC25B-CDK2 inh
Cc1ccc(-c2cn3c(n2)sc2cc(C(=O)NCC4CCCO4)ccc23)c(C)c1 (configuration not stated),2.5,.
Cc1csc(C(=O)NCC(=O)NNS(=O)(=O)c2ccc(F)cc2)c1,.,-1
CCc1nn(CC(=O)NC2CCCC2)c(=O)c2cc3occc3n12,1.8,-0.49
CN(C)CCN(Cc1cccs1)C(=O)Cn1c(=O)oc2ccccc21,1.1,.
CCOC(=O)c1sc(NC(=O)c2cc(=O)c3cc(Cl)ccc3o2)c(C(=O)OCC)c1C,0.06,-1.1
CCOCc1nc(N2CCOCC2)sc1C(=O)NCCCc1ccco1,1.1,-1.5
CCOC(=O)c1sc2nc3c(c(-c4ccco4)c2c1N)CN(C)CC3,0.64,.
CC(CC(=O)NCCc1ccco1)S(=O)(=O)c1ccc2c(c1)CCN2C(=O)C1CC1 (configuration not stated),-0.33,.
CCc1ccc(CNc2nc(-c3ccccc3)no2)cc1,-0.14,.
Cc1ccc(Cl)cc1Nc1nc2ccccc2n2nnnc12,-3.7,-2.4
c1ccc(-c2nn3c(-c4ccccc4)nnc3c3ccccc23)cc1,-0.25,-0.25
Cc1ccc(Nc2c(-c3ccc4c(c3)OCC(=O)N4)c(=O)c2=O)c(Br)c1,0,.
CC(=O)Oc1ccccc1C1OC(c2cc(-c3ccccc3)nc3ccccc23)=NN1C(C)=O (configuration not stated),0.71,.
CC1CC(C)(C)NC(=S)N1CCC(=O)N1c2ccccc2CC1C (configuration not stated),.,0.57
O=c1c(NCc2ccccc2)c(-c2ccccc2)c1=O,0.82,.
CC(C)Cn1cc(NC(=O)NCCN2C(C)CCCC2C)c2ccccc2c1=O (configuration not stated),-0.05,.
COC(=O)c1nnn(-c2ccc(OC)cc2)c1C(=O)OC,0.3,-2.8
Cc1nn(C)c(C)c1CNC(=O)Nc1ccc(F)c(Cl)c1,-0.47,.
O=C1CSc2nnc(-c3ccncc3)n2N1,1.4,-1.1
COc1ccc(S(=O)(=O)N2CCN(c3cc(N(C)C)nc(C)n3)CC2)c(C)c1C,-0.25,-1.3
O=C(CCCN1C(=O)c2cccnc2Oc2ccccc21)N1CCN(c2ccccn2)CC1,1.2,.
Cn1c(=O)c2c3c(sc2n2c(SCC(=O)c4ccc(Br)cc4)nnc12)CCC3,0.43,-4.6
COc1ccccc1NCc1cccn1-c1nnc(N2CCOCC2)s1,0.89,.
Cc1nn(-c2nc3ccccc3s2)c2c1C(c1ccc3ccccc3c1)CC(=O)N2 (configuration not stated),-0.01,-2.1
Cc1c(C(=O)NC2CCCC2)nnn1-c1ccc2noc(-c3ccc(Br)cc3)c2c1,-1.8,-1.1
O=C(CSc1ccc2nnc(-c3cccc(F)c3)n2n1)NCc1ccc2c(c1)OCO2,.,-1.3
O=c1c2ccccc2nc2n1CCO2,.,-0.23
O=C(Cn1c(=O)c2ccc(Cl)cc2n2nncc12)Nc1ccc2c(c1)OCO2,0.33,0.6
CC(C)Cn1c(=O)c2ccccc2n2c(CCC(=O)O)nnc12,2.6,0.19
Cc1nc2nc(C)c(NS(=O)(=O)c3ccc(F)c(C)c3)c(=O)n2[nH]1,-0.45,-1.4

# Part of the list above in order of length of the SMILES, highest first:
SMILES,TAR Tat displ,CDC25B-CDK2 inh
Cc1c(C(=O)NC2CCCC2)nnn1-c1ccc2noc(-c3ccc(Br)cc3)c2c1,-1.8,-1.1
O=C(CCCN1C(=O)c2cccnc2Oc2ccccc21)N1CCN(c2ccccn2)CC1,1.2,.
Cc1nn(-c2nc3ccccc3s2)c2c1C(c1ccc3ccccc3c1)CC(=O)N2 (configuration not stated),-0.01,-2.1
O=c1c2ccccc2nc2n1CCO2,.,-0.23

# Quoted at random: six records from the list, in no set order.
SMILES,TAR Tat displ,CDC25B-CDK2 inh
O=C(Cn1c(=O)c2ccc(Cl)cc2n2nncc12)Nc1ccc2c(c1)OCO2,0.33,0.6
Cc1nc2nc(C)c(NS(=O)(=O)c3ccc(F)c(C)c3)c(=O)n2[nH]1,-0.45,-1.4
Cc1nn(-c2nc3ccccc3s2)c2c1C(c1ccc3ccccc3c1)CC(=O)N2 (configuration not stated),-0.01,-2.1
CC(C)Cn1c(=O)c2ccccc2n2c(CCC(=O)O)nnc12,2.6,0.19
O=c1c2ccccc2nc2n1CCO2,.,-0.23
COc1ccccc1NCc1cccn1-c1nnc(N2CCOCC2)s1,0.89,.

# Going on with the list.
SMILES,TAR Tat displ,CDC25B-CDK2 inh
Cc1ccc(C2=NC(c3cccnc3)NC(c3ccccc3O)C2)cc1 (configuration not stated),-0.89,.
COc1ccc(C2=C(C)C(=NCc3ccc(OC(C)C)cc3)NS2(=O)=O)cc1,1,-0.74
Cc1c(C(=O)Nc2ccc(F)c(Cl)c2)sc2nc3n(c(=O)c12)CCC3,1.4,.
CC(C)(O)C#Cc1ccccn1,.,-0.42&-1.9
O=S1(=O)C[C@H](N2CCCC2)[C@@H](S(=O)(=O)c2ccc(Cl)cc2)C1,-0.27,-2.5
O=C(NCC1CCCO1)c1nn(-c2ccccc2)nc1CO (configuration not stated),2.6,-1.3
CCOc1ccc(C2c3c(oc4ccc(C)cc4c3=O)C(=O)N2CCCN(C)C)cc1OC (configuration not stated),-0.52,-0.95
O=C(CS(=O)(=O)c1cccc2nsnc12)N1CCN(c2ccccc2)CC1,0.48,.
O=C(NCc1cccs1)C1CCN(c2nnc(-n3cccc3)s2)CC1,2.6,.
Cc1ccc2nc(C)n3c4ccccc4c(NC(=O)c4ccccc4)c3c2c1,0.93,-1.2
CC1CCc2c(cnc3c(C(=O)NCc4cccs4)cnn23)C1 (configuration not stated),-1.1,.
COc1cc(Nc2nc3ccccc3c3nncn23)cc(OC)c1,-0.56,-3.9
CC1CCCCN1C(=O)Cn1c(=O)n(CCC(=O)NCc2ccco2)c(=O)c2sccc21 (configuration not stated),.,-0.83
O=c1[nH]c(=O)n(CCO)c2nonc12,1.9,-0.4
CCc1nn(CC(=O)NCCC2=CCCCC2)c(=O)c2cc3sccc3n12,1.4,-1
Cn1c(C2=C(O)CN(Cc3ccccc3Cl)C2=N)nc2ccccc21,0.98,0.03
CS(=O)(=O)Nc1ccc(C2=NN(C(=O)c3ccco3)C(c3ccccc3)C2)cc1 (configuration not stated),.,-2.9
O=C(CSc1nc(-c2ccc(Cl)cc2)nc2cc(=O)[nH]n12)Nc1ccccc1F,15,.
CCOc1cc(/C=c2\sc3nc4ccccc4n3c2=O)ccc1OCCCOc1cccc(C)c1,.,-0.59
Cc1cc(Sc2nn(C)c(=S)s2)nc(Cl)n1,.,-2.4
CCC12CN3CC(CC)(CN(C1)C3c1ccccc1)C2O (configuration not stated),-0.13,-0.99
O=C(NCCCN1CCCCC1)c1noc2c1CCc1sccc1-2,0.33,.
O=C(Nc1ccc(F)cc1)c1ccc(N2CCSc3ncccc32)s1,-0.1,.
Cc1cccc(Nc2nc3ccccc3n3nnnc23)c1,.,-2.1
Cc1ccc(S(=O)(=O)c2nnn(-c3cccc(C)c3)c2C)cc1,0.42,-0.19
CCOC(=O)c1nc2ccccc2nc1C,1.5,.
O=C1CCc2cc(S(=O)(=O)NCc3ccc4c(c3)OCO4)cc3c2N1CCC3,1.3,.
C=CCN[C@H]1CS(=O)(=O)C[C@@H]1S(=O)(=O)c1ccc(Cl)cc1,0.44,-0.14
CSc1cccc(NC(=O)c2ccc(N3CCSc4ncccc43)s2)c1,-0.82,.
CC1=C(C(=O)Nc2ccc(C(=O)N3CCCC3)cc2)SCCO1,1.6,.
O=C(NCC1CCCO1)c1ccc(CSc2nc3cccnc3n2Cc2ccccc2)cc1 (configuration not stated),-0.95,.
COc1ccc2oc(C(=O)c3ccc(Cl)cc3)c(N)c2c1,2.5,-0.88
CC(C)OCCCNC(=O)CCc1nc2sc3c(c2c(=O)[nH]1)CCCCC3,0.68,.
CCN(CC)CCCN(C)C(=O)Cn1ncc2c(=O)oc3ccc(C)cc3c21,0.13,-0.63
COc1ccc(N2C(=O)c3ccncc3C2=O)cc1,0.82,.
Cc1ccccc1-c1nnc2n1N=C(c1ccccc1)CS2,0.3,.
CCOC(=O)c1c(C)[nH]c(NC(=O)N(CC)CC)c1C,1.9,-0.6
CCNc1nc(NC2CCCC2)nc2c1cnn2C,0.86,.
Cc1cc(C)cc(N2C(=O)N(Cc3cc(=O)n4ccccc4n3)c3ccccc3S2(=O)=O)c1,0.1,.
O=C(Cn1cc2c(n1)CCCCC2)N1CCc2ccccc2C1,.,-1.1
FC(F)(F)c1cccc(OCc2ccc(-c3ncns3)cc2)c1,.,-3
O=C1c2cccnc2C(=O)N1Cc1ccc(S(=O)(=O)NCc2ccc3c(c2)OCO3)cc1,0.77,.
COc1ccc(CSc2nc3ccccc3[nH]2)cc1OC,-1.1,-0.67
O=c1c2ccccc2nc2n1CCCN2CCOc1ccc(Cl)cc1,-0.61,-0.08
Cc1ccc(OCCOc2ccc(Cl)cc2/C=C2\SC(=S)N(C)C2=O)c(C)c1,.,-2.1
Cc1cccc(N2CCN(c3c4c(nc5ncnn35)CCC4)CC2)c1C,0.96,.
CCOc1cc(S(=O)(=O)n2cnc3cc(C)c(C)cc32)ccc1F,0.09,-4.1
O=C1CC(c2ccccc2)CC2=C1C(c1coc3ccccc3c1=O)Nc1ccccc1N2 (configuration not stated),0.85,0.43
O=C(COCc1cc(-c2ccc3c(c2)OCO3)on1)Nc1nccs1,-0.79,.
COc1ccc(/C=C(/CC(=O)O)C(=O)O)cc1,.,-0.25
# Further compounds.
SMILES,TAR Tat displ,CDC25B-CDK2 inh
COCCOC(=O)C1=C(C)Nc2nc3ccccc3n2C1c1ccccc1F (configuration not stated),1.1,-0.66
CS/C(Nc1ccc(F)cc1)=C(/C#N)C(=O)c1ccco1,.,-1.5
CC1CCN(c2ccc3nnc(CCC(=O)Nc4ccc5c(c4)OCO5)n3n2)CC1,0.44,.
O=C1C(Nc2ccccc2)=CC(c2ccc([N+](=O)[O-])cc2)N1c1ccccc1 (configuration not stated),.,-0.01
O=C(CSc1nnc(-c2ccncc2)o1)N1CCCCC1,1.7,-1.1
CC(C)n1c(NC2CCCCC2)nc2c1c(=O)[nH]c(=O)n2C,-1.4,-0.68
CCOc1ccc(NS(=O)(=O)c2ccc3c(c2)NC(=O)CC(C)S3)cc1 (configuration not stated),0.12,.
CCCCN(C)CCNC(=O)Cn1ncc2c([nH]c3ccccc32)c1=O,0.88,.
CCOC(=O)c1cc(-c2ccc(S(=O)(=O)N3CCN(c4ccc(Cl)cc4)CC3)s2)on1,-0.14,.
Fc1cc(F)cc(-c2noc3ncnc(NCc4ccccc4Cl)c23)c1,0.34,.
Cc1nc(CNC(=O)c2oc3cc(C)c(Cl)cc3c2C)cs1,2.1,0.41
Cn1cccc1-c1cc2n(n1)CCCN2C(=O)Nc1ccc(F)cc1,-2.2,.
CCCn1c2ccccc2c2cnn(CC(=O)Nc3ccccn3)c(=O)c21,1.3,.
Clc1cccc(-n2cc(-c3ccccc3)c3c(NCc4cccs4)ncnc32)c1,1.7,.
COc1ccc(C2c3c(n(C)c(=O)n(C)c3=O)N=C3c4ccccc4C(=O)C32)cc1OC (configuration not stated),1.1,2.3
OCC(O)C(O)C(O)c1cnn(-c2ccccc2)n1 (configuration not stated),.,-1.8
CC(C)Cn1cc(C(=O)NCC2COc3ccccc3O2)c2c3ccccc3n(C)c2c1=O (configuration not stated),.,0.6
Cc1nc(N(C)C)ncc1C(=O)NCCC1=CCCCC1,1.6,.
Nc1ccc2nc(-c3ccccc3Br)[nH]c2c1,.,-4.2
c1ccc(CNc2nc3ccccc3n2CCN2CCCCC2)nc1,-0.27,0.06
Cc1ccc(-c2noc(-c3nnn(-c4cc(C)ccc4C)c3N)n2)cc1,1,.
CCC(NCC(O)Cn1c2ccccc2c2ccccc21)C(=O)O (configuration not stated),1.7,-0.72
O=C(CSc1nc2ccccc2c(=O)n1CCC1=CCCCC1)NCc1ccco1,.,-0.24
COc1cc(NC(=O)c2cc(C)oc2C)cc(OC)c1OC,.,-1.2
CN(C(=O)Cn1nc(C(F)(F)F)c2c1CCCC2)c1ccccc1,0.22,-1.1
Cc1oc2ncnc(N3CCOCC3)c2c1C(=O)Nc1cc(F)ccc1F,-0.66,.
CCc1nc2nc(C)cc(N3CCN(c4ccc(F)cc4)CC3)n2n1,0.61,-2.2
CC1CCCC(NC(=O)CN2C(=O)CSc3ccc(S(=O)(=O)N4CCOCC4)cc32)C1C (configuration not stated),2.1,.
CCc1nc(NC(=O)Cc2csc(C)n2)sc1C(=O)OC,1.6,-1.5
CCOP(=O)(NC(NNC(=S)Nc1ccccc1)(C(F)(F)F)C(F)(F)F)OCC,.,-2.3
O=C1c2ccc(-c3nc4ccccc4c(=O)o3)cc2C(=O)N1c1ccc(-c2ccc([N+](=O)[O-])cc2)cc1,.,-3
Cc1nc(-c2cccs2)c(CC(=O)O)s1,0.09,-0.28
Cc1cc(C(=O)CCN2CCC(c3cc(C)sc3C)=N2)c(C)s1,.,-2.1
CCC(CO)Nc1nc(C)nc2sc3c(c12)CCCC3 (configuration not stated),.,-0.02
Cc1cc(F)ccc1NS(=O)(=O)c1cc2[nH]c3c(c2cc1C)C(=O)CC(C)(C)C3,0.15,.
CC(=S)c1ncc(C(F)(F)F)cc1N(C)C,.,-0.88
O=C(Nc1nc2cc3c(cc2s1)OCO3)c1ccc(S(=O)(=O)N2CCOCC2)cc1,1,.
S=c1[nH]nc(Cn2nnc3ccccc32)o1,.,0.26
O=C(Cn1c(=O)n(-c2ccc(Cl)cc2)c(=O)c2c3c(sc21)CCC3)N1CCCC1,.,-1.7
CC1Cc2ccccc2N1C(=O)c1cc(-c2ccccn2)n[nH]1 (configuration not stated),1.9,.
NC(=O)c1cc(S(=O)(=O)NCCCc2ccco2)cs1,0.05,.
Cc1cc(C)c2oc(C(=O)Nc3nc4ccc(S(C)(=O)=O)cc4s3)cc(=O)c2c1,1.7,-1.3
Cc1cc(C)cc(-c2nc(-c3ccccc3)no2)c1,1.5,-4.3
CC(=O)c1cc([N+](=O)[O-])c(SCc2ccc(Cl)cc2)s1,.,-1.4

# This is a random part of the collection (roughly 0.9% active in at least one column).
